Assay outcomes from PubChem.
Vaccinia mCherry: inhibitors of vaccinia virus infection (mCherry reporter signal); Vaccinia virus mCherry reporter infection, fluorescence; about a quarter of the inactives have no number; Potency, µM (highest dose often 36.5 µM), inactives show at the highest dose activity change, negative = inhibition, actives largely listed as inhibitors; 0.63% of 310,000 active; active = well fitted inhibition curve with a large enough effect; inconclusive = small, poorly fitted or top-dose-only effect; inactive = no such curve, though single readings can be large or run the other way; tested in A549 cells; note: nearly all actives have a fitted effect of over 35% in size; inactives centre near -10
Vaccinia Venus: inhibitors of vaccinia virus (Venus reporter) | AID 720580 | Potency, µM (highest dose often 36.5 µM), for inactives: at the highest dose activity change, negative = inhibition, most hits filed as inhibitors | Vaccinia virus Venus reporter expression, fluorescence | 0.46% of 330,000 active; active means well fitted inhibition curve with a large enough effect; inconclusive means small, poorly fitted or top-dose-only effect; inactive means no such curve, though single readings can be large or run the other way; tested in A549 cells; note: nearly all actives have a fitted effect of over 30% in size; inactives centre near -10
Starred values were filed as active, the others as inactive; i = inactive; ? = inconclusive; nt = no result given; & = joins results of further samples; [ ] = dose if it differs, or a comment. % is set by controls: 0 for no effect and ±100 for the full control effect; potency is the fitted concentration of half-maximal effect. Not a hit list; about 0.82% have a hit in one of these screens.

SMILES | Vaccinia mCherry | Vaccinia Venus
Clc1ccc2c(Cl)cc[n+](CCC3CCCCC3)c2c1 | 37%[activator] | -8%
Cc1ccc(C(=O)N/N=C\c2ccc[nH]2)cc1[N+](=O)[O-] | -29% | -18%
N#Cc1ccc(NCC(=O)Nc2ccc3c(c2)OCCO3)cc1 | -14% | -6%
CCCCOc1ccc(Br)cc1CSC(=N)N | -26% | -16%
Cc1cccc(NC(=S)NCc2cccs2)c1 | i | -8%
Cc1ccc(S(=O)(=O)NC[C@H]2O[C@@H](n3cnc4c(N)ncnc43)[C@H](O)[C@@H]2O)s1 | -15% | 0%
Cc1ccc(CNC(=O)C2CCN(Cc3nc(-c4cccc(Br)c4)oc3C)CC2)cc1 | -13% | -21%
O=C(COC(=O)c1ccc(Cl)c(S(=O)(=O)NCc2ccccc2)c1)NCC1CCCO1 (stereo unspecified) | -1% | -16%
O=C(Cn1cnc2sc(-c3ccccc3)cc2c1=O)N1CCOCC1 | i | 4%
Cc1ccc(NC(=S)N(CCCN(C)C)Cc2cc3cc4c(cc3[nH]c2=O)OCO4)cc1 | -3% | -10%
Cc1ccc(S(=O)(=O)N2CCCN(C)CC2)cc1 | 0% | -6%
COc1ccc(/C=C(\NC(=O)c2ccccc2)C(=O)NCc2ccco2)cc1OC | -14% | -12%
Cc1csc(NC(=O)CCC(=O)N(CC(=O)NC2CCCC2)c2ccccc2)n1 | -16% | -15%
CCC(C)NC(=O)c1c(N)n(Cc2ccc3c(c2)OCO3)c2nc3ccccc3nc12 (stereo unspecified) | -25% | ?
COc1ccc(S(=O)(=O)N2CCOCC2)cc1NC(=O)CN1CCC(Cc2ccccc2)CC1 | ? | ?
Cc1ccc(NC(=O)/C(C#N)=C/c2cc(C)n(-c3ccc(F)cc3)c2C)cc1C | -1% | 6%
CCOc1ccc(N(CC)S(=O)(=O)N2CCCC(C(=O)NCCc3ccccc3OC)C2)cc1 (stereo unspecified) | -6% | -10%
COCCCn1cc(CN2CC(N3CCCC3)CS2(=O)=O)nn1 (stereo unspecified) | -3% | -2%
Nc1ncnc(Nc2ccccc2Oc2ccccc2)n1 | i | -9%
O=C(Nc1ccc(Br)cc1)c1ccc(-n2cnnn2)cc1 | -3% | -11%
C=CCC[C@@H](Cc1ccc(F)cc1)C(=O)OC[C@H](Cc1c[nH]c2ccccc12)NC(=O)[C@@H](CC=C)CC(=O)N[C@H](CO)Cc1ccccc1 | i | ?
O=C(Nc1ccc2c(c1)CCCN2C(=O)c1ccccc1)c1ccccc1 | -3% | -27%
Cc1ccccc1CCN(C(=O)Cn1nnc2ccccc21)C(C(=O)NC(C)(C)C)c1ccsc1 (stereo unspecified) | -3% | -15%
CCCCCCC(=O)O | -5% | 1%
COc1ccc(-n2c(=S)[nH]c3cc(C(=O)NCc4ccc(F)cc4)ccc3c2=O)c(OC)c1 | ? | -27%
CC(C)(C)c1cc(NC(=O)Nc2ccc(Cl)cc2Cl)no1 | -10%[7.34 µM] | 2%[7.34 µM]
O=C(N/N=C/c1ccc(-c2ccc([N+](=O)[O-])cc2)o1)[C@H]1C[C@@H]1c1ccccc1 | -19% | 10%
CCOc1ccc(NC(=O)CSc2nc(C)c(C(=O)Nc3ccccc3)c(-c3ccc(Cl)cc3)c2C#N)cc1 | -6% | -9%
CCN(C(=O)COC(=O)c1ccc(S(=O)(=O)N2CCCc3ccccc32)cc1)C1CCS(=O)(=O)C1 (stereo unspecified) | -13% | -4%
Cc1ccc(NC(=O)C2(C)CCN2C(=O)Cc2ccccc2Cl)cc1C (stereo unspecified) | 27% | -14%

Whole records as entered above. Values in the order: Vaccinia mCherry | Vaccinia Venus
CCN(C(=O)COC(=O)c1ccc(S(=O)(=O)N2CCCc3ccccc32)cc1)C1CCS(=O)(=O)C1 (stereo unspecified) is listed with -13% | -4%
CCCCCCC(=O)O is listed with -5% | 1%

Next part.
SMILES | Vaccinia mCherry | Vaccinia Venus
COc1ccc(-n2c(SCC(=O)Nc3ccccc3OC)nc(O)cc2=O)cc1 | i | -11%
CC(=O)[C@@H]1[C@@H](C)N(Cc2ccccc2)C(=O)N[C@H]1c1ccccc1 | -1% | -5%
COc1ccc(CCN2CC(C(=O)Nc3ccccc3F)CC2=O)cc1OC (stereo unspecified) | i | -2%
COc1ccc(-n2c(-c3ccccc3)nnc2-c2ccc(Cl)cc2)cc1 | -2% | 9%
Cn1c2c(c(=O)n(C)c1=O)C1c3cc(Cl)ccc3OCC1CO2 (stereo unspecified) | nt | -14%
CCCCc1cc(=O)oc2c3c(cc(OCC(=O)NCCCO)c12)OC(C)(C)CC3 | -2% | -14%
COc1ccccc1[C@@H]1C(c2ccccc2)=NN(c2ccc(Br)cc2)[C@H]1C(=O)N1CCOC1=O | -17% | -14%
C=CCN(C(=O)CNC(=O)c1cccs1)C(C(=O)NC1CCCCC1)c1cccnc1 (stereo unspecified) | i | -3%
CCSc1nnc(NC(=O)COc2ccc3ccccc3c2)s1 | -3% | 0%
CSCCC(NS(=O)(=O)c1ccc2ccccc2c1)C(=O)OCC(=O)c1ccc(C(C)C)cc1 (stereo unspecified) | -7% | -12%
CN(C)S(=O)(=O)c1cccc(NC(=O)c2ccncc2)c1 | -10% | -11%
Brc1ccc(CN2CCc3nc(Nc4ccccc4)ncc3C2)s1 | -15% | -19%
C[C@]12CC[C@@H]3c4cc(O)c(O)cc4CC[C@H]3[C@@H]1CC[C@@H]2O | -9% | -25%
COc1ccc(C2(CNC(=O)c3ccccc3)CCCC2)cc1OC | -14% | -20%
OC(c1ccccc1)c1ncc(-c2cccc(C(F)(F)F)c2)[nH]1 (stereo unspecified) | -14% | -15%
CCCn1c(N)c(Br)c(=O)[nH]c1=O | -9% | -2%
Cc1ccc(-n2[nH]c(C)c(/C=N/n3c(C)nc4ccccc4c3=O)c2=O)cc1 | -11% | -11%
CCn1c(SCC(=O)N/N=C/c2ccccc2OCC(=O)O)nnc1-c1ccc(C(C)(C)C)cc1 | i | 16%
Cc1ccc(S(=O)(=O)N(C)c2ccc(OCC(=O)Nc3nc4c(ccc5ccccc54)s3)cc2)cc1 | i | -6%
COc1cccc(NC(=O)C(NCCc2ccc(S(N)(=O)=O)cc2)c2ccccc2)c1 (stereo unspecified) | i | -3%
Cc1cc(NCCCn2ccnc2)n2c(nc3ccccc32)c1C#N | -8% | -6%
CN1CCN(C(=O)C(=O)Nc2c3c(nn2-c2cccc(Cl)c2)CSC3)CC1 | -12% | -3%
O=[N+]([O-])c1ccc(N=Nc2ncc[nH]2)cc1 | i | -13%
CCN(CC)c1ccc(-c2nc(-c3ccccn3)no2)cc1[N+](=O)[O-] | -16% | -23%
COc1ccc(OC)c(NC(=O)CC2SC(=NCc3ccccc3)NC2=O)c1 (stereo unspecified) | -12% | -18%
COc1cccc(OC)c1C(=O)N[C@@H]1C(=O)N2[C@@H]1SC(C)(C)[C@@H]2C(=O)O | -14%&-13% | -15%&-6%
CC(C)(C)c1ccc(S(=O)(=O)N2CCN(Cc3noc(CCC(=O)N4CCCCC4)n3)CC2)cc1 | -9% | -14%
CC(=O)Nc1ccccc1C(=O)C(=O)Nc1ccc(C)c(C)c1 | i | -3%
COc1ccc(N2C(=O)C3CCCN3C2c2ccccc2OC)cc1 (stereo unspecified) | 2% | 4%
O=S(=O)(Nc1ccccc1Br)c1cccc2cccnc12 | -10% | -15%
CC(=O)NC1(c2nnnn2CCOC(=O)Nc2ccc(Cl)cc2)CCCCC1 | nt | -16%
COc1ccc(C(=O)Oc2c(Sc3ccccc3)c(C)nn2-c2ccccc2)c(OC)c1 | ? | ?
CCOC(=O)[C@@H]1[C@H]2COc3cc(OC)ccc3[C@@H]2N2C(=O)N(c3ccc(OC)cc3)C(=O)[C@@]12C | i | -9%
COc1cccc(C2C3=C(N=C4SCC(=O)N42)c2ccccc2CC3)c1OC (stereo unspecified) | nt | -18%
C=C(CN(C)C)C(=O)c1cc(C)ccc1C | ? | 7.1µM*
CCOC(=O)c1c(C)cc(O)cc1O | -14%&-21% | -17%&-10%
CN(C)S(=O)(=O)c1cccc(C(=O)NC2CCCc3ccccc32)c1 (stereo unspecified) | -15% | -12%
Cc1ccc(NCc2cccn2-c2nnc(N3CCC(C(=O)NCc4ccc(OC(C)C)cc4)CC3)s2)cc1 | ? | ?
COc1ccc(Cl)cc1NC(=O)CCN1C(=O)C2C3C=CC(C4CC34)C2C1=O (stereo unspecified) | -5% | -23%
COc1ccccc1NC(=O)C1=C(C)Nc2nc(SCC(=O)c3ccc(C)cc3)nn2C1c1ccc(F)cc1 (stereo unspecified) | -22% | -7%
Cc1nc(-c2ccc(S(=O)(=O)Nc3ccc(C#N)cc3)cc2)co1 | -7% | -9%
CCOC(=O)CC(=O)Nc1ccc(Br)cc1C(=O)O | nt | -2%
CN(NS(=O)(=O)c1ccc(Br)cc1)c1nc(C(F)(F)F)nc2ccccc12 | -15% | -29%
COCCN(C(=O)CSc1nnc(-c2ccc(C)cc2)n1N)c1c(N)n(Cc2ccccc2)c(=O)[nH]c1=O | -5% | -6%
CN(C(=O)Oc1ccc(F)cc1)c1ccccc1 | -12% | -13%
CSCCC(Nc1ccc(S(=O)(=O)N2CCOCC2)cc1[N+](=O)[O-])C(=O)OCC(=O)NCC(C)C (stereo unspecified) | -16% | -4%
Cc1cc(C)c(S(=O)(=O)N2CCN(C(=O)CC(C)n3nc(C)nc3C)CC2)c(C)c1 (stereo unspecified) | -3% | -21%
COc1ccc(CCN2C(=O)C(O)=C(C(C)=O)C2c2ccccc2OC)cc1OC (stereo unspecified) | -8% | -4%
CCOc1ccc(C2OC(=O)Cc3cc(OC)c(OC)cc32)cc1 (stereo unspecified) | -25% | -12%
O=C(CSc1nnc(NC(=O)c2ccccc2F)s1)NCc1ccco1 | -2% | -10%
C/C(=N\NC(=O)C(N)=O)c1ccc(OC(F)F)cc1 | i | -4%
Cc1ccc(NC(=O)CN(C)C(=O)CSc2nc3ccccc3c(=O)n2Cc2ccco2)cc1 | nt | -27%
CC(C)(C)NC(=O)C(c1ccc(C#N)cc1)n1c(=O)c(-c2ccccc2)nc2ccccc21 (stereo unspecified) | -8% | -13%
Cc1ccc(S(=O)(=O)NC2=NCN(C3CCCCC3)CN2)cc1 | -8% | 0%
Cc1ccc2c(c1)C(C)CC(C)(C)N2C(=O)NC1CCCCC1 (stereo unspecified) | nt | -5%
Cc1cc(N2C(=O)C(=O)/C(=C(/O)c3ccc(F)cc3)C2c2ccc(F)cc2)no1 (stereo unspecified) | i | -7%
COc1ccc(N2CC(NC(=O)C3CCCCC3)CC2=O)cc1OC (stereo unspecified) | 8% | 3%
Cc1nn2c(=O)cc(COC(=O)c3ccc(NC(=O)COc4ccccc4F)cc3)nc2s1 | -10% | -23%
COc1ccc(S(=O)(=O)N2CCCCC2)cc1NC(=O)CCNC(=O)c1ccco1 | -19% | -14%
Cc1ccc(Sc2c(C)nn(C(C)(C)C)c2OC(=O)CC(C)C)cc1 | -15% | 1%

(list continues)
SMILES | Vaccinia mCherry | Vaccinia Venus
COc1cc(SC)ccc1C(=O)OC(C)C(=O)NC1CCCC1 (stereo unspecified) | i | -2%
CCOC(=O)c1cccc(NC(=O)CN2CCN(c3ccc(OC)cc3)CC2)c1 | i | -27%
COc1ccccc1Cc1noc(-c2cc(Cl)ccc2OC)n1 | i | -9%
O=C(CN(C(=O)c1ccccc1)N1C(=O)CCC1=O)c1cccs1 | -18% | 0%
Nc1nc2ccc(Cl)cc2cc1C(=O)NCCc1ccc(O)cc1 | ? | -25%
O=C(NC(=S)N1CCN(C/C=C/c2ccccc2)CC1)c1cccnc1 | ? | ?
Cc1cccn2cc(CCNC(=O)c3cccs3)nc12 | ? | -7%
Cc1cc(NC(=O)CSC2=NS(=O)(=O)c3cc(Cl)ccc3N2)no1 | -13% | -12%
COc1ccccc1-c1cc2nc(C)c(CCC(=O)NCc3cccc(Cl)c3)c(C)n2n1 | -7% | -12%
CCOC(=O)c1c(-c2cccs2)csc1NC(=O)CC(C)C | -5% | 3%
Cc1ccc(C(=O)Nc2oc(-c3ccccc3)cc2C#N)cc1 | nt | 2%
O=c1onc(-c2ccccc2)n1-c1cc(Cl)cc(Cl)c1 | -6% | 4%
CCC(=O)c1cn(CC(=O)O)c2ccccc12 | -9% | -10%
Nc1ccc2nc(-c3cccs3)[nH]c2c1 | -26% | -15%
CCOc1ccc(-c2nonc2NC(=O)c2ccco2)cc1 | -5% | -10%
O=C(CN1C(=O)NC2(CCCCC2)C1=O)N1CCN(S(=O)(=O)c2ccc(F)cc2)CC1 | -18% | -9%

Retrieved by compound from above:
SMILES | Vaccinia mCherry | Vaccinia Venus
COc1ccccc1-c1cc2nc(C)c(CCC(=O)NCc3cccc(Cl)c3)c(C)n2n1 | -7% | -12%
O=C(CN1C(=O)NC2(CCCCC2)C1=O)N1CCN(S(=O)(=O)c2ccc(F)cc2)CC1 | -18% | -9%
Cc1ccc(C(=O)Nc2oc(-c3ccccc3)cc2C#N)cc1 | nt | 2%
COc1ccccc1Cc1noc(-c2cc(Cl)ccc2OC)n1 | i | -9%
CCC(=O)c1cn(CC(=O)O)c2ccccc12 | -9% | -10%
O=c1onc(-c2ccccc2)n1-c1cc(Cl)cc(Cl)c1 | -6% | 4%
COc1cc(SC)ccc1C(=O)OC(C)C(=O)NC1CCCC1 (stereo unspecified) | i | -2%
